# D2 ag = Beta-Arrestin HTS for Positive Allosteric Modulators of the Human D2 Dopamine Receptor: Agonists; DiscoveRx PathHunter D2 beta-arrestin, luminescence, 90 min; 100% = 57 uM dopamine signal; activation, % (no concentration beside the values); 0.084% of 360,000 active; AID 624465, 2012; D(2) dopamine receptor (Homo sapiens), P14416; in the data active = activation above about 40%; inconclusive = about 15% to 40%; inactive = below about 15%; also: compound concentration not given in the record; the text of the record calls up to 30% inactive
#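 Agonist mode: compounds alone added to overnight-plated D2 PathHunter cells for 90 min at 37 C, with 57 uM final dopamine (EC100) defining full response. Beta-arrestin recruitment detected by chemiluminescent reagent, read after 1 h at ambient temperature.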
# TRPML1 ag = qHTS for Agonists of the Human Mucolipin Transient Receptor Potential 1 (TRPML1); activation, % (concentration not given with the values); TRPML1-expressing cells, Ca2+ dye fluorescence, FDSS; host cell line not named in the record; reference of the full effect not given here; 0.12% of 410,000 active; AID 624414, 2012; Mucolipin-1 (Homo sapiens), Q9GZU1; in the data active = activation above about 50%; inconclusive = about 30% to 50%; inactive = below about 30%; also: 0% is about no effect; the text of the record puts the active cut at 80%
#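 In this qHTS format, compounds were pin-transferred onto Ca8-dye-loaded TRPML1-DL cells induced with Tet overnight, and intracellular Ca2+ fluorescence was recorded kinetically for 110 s after a 10 s baseline. A subsequent 4uM final 54-4 (EC80) addition followed by a second 110 s read served as the antagonist phase.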
# PINK1 modulator = A Quantitative High throughput Screen to Identify Chemical Modulators of PINK1 Expression | 0.2% of 410,000 active | AID 624263, 2012 | Potency, µM (titrated, usually from 76.6 µM), without a hit: at the top dose activation (PINK1 increase), actives largely listed as activators | PINK1 immunofluorescence, high-content cytometry, 24 h; active = well fitted activation curve with a large enough effect; inconclusive = small, poorly fitted or top-dose-only effect; inactive = flat fitted curve, though single readings scatter; cell line not stated here;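 also: potency is read from the fitted curve at half-maximal effect; % of control where 0% means no effect; nearly all actives have a fitted effect of over 65% in size; a mitochondrial uncoupler was the plate control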
#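 Measures PINK1 amount and localization on or inside mitochondria by immunofluorescence. Stable cells get compounds at 5 concentrations for 24 hours before fixation and staining; CCCP controls included.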
# D2 PAM = Beta-Arrestin HTS for Positive Allosteric Modulators of the Human D2 Dopamine Receptor: Potentiators. D(2) dopamine receptor (Homo sapiens), P14416. DiscoveRx D2 beta-arrestin cells, luminescence, 90 min; 100% = 57 uM dopamine signal. potentiation, % (concentration not given with the values). 0.23% of 360,000 active. AID 624464, 2012; active = potentiation of 50% or more; inconclusive = 30% to 50%; inactive = 30% or less;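 also: compound concentration not given in the record; tested on top of an EC20 dose of dopamine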
#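 PathHunter D2 cells, attached overnight at 37 deg C, received compound in DMSO plus dopamine at EC20 (50 nM final) for 90 min at 37 deg C. Beta-arrestin recruitment was read as luminescence after 1 h with detection reagent at ambient temperature.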
# Six1-Eya2 inh = qHTS Assay for Inhibitors of the Six1/Eya2 Interaction; Homeobox protein SIX1 (Homo sapiens) + Protein phosphatase EYA2 (Homo sapiens), …; activity change, % (no concentration beside the values); 0.56% of 360,000 active; AlphaScreen GST-Six1/His-Eya2 binding, biochemical; active compounds read low; control for the full effect not named in the record; in the data active = activity change below about -65%; inconclusive = about -30% to -65%; inactive = above about -30%; also: % is scaled to controls: 0 for no effect and ±100 for the full control effect
# Target sequence (O00167 whole entry, looked up): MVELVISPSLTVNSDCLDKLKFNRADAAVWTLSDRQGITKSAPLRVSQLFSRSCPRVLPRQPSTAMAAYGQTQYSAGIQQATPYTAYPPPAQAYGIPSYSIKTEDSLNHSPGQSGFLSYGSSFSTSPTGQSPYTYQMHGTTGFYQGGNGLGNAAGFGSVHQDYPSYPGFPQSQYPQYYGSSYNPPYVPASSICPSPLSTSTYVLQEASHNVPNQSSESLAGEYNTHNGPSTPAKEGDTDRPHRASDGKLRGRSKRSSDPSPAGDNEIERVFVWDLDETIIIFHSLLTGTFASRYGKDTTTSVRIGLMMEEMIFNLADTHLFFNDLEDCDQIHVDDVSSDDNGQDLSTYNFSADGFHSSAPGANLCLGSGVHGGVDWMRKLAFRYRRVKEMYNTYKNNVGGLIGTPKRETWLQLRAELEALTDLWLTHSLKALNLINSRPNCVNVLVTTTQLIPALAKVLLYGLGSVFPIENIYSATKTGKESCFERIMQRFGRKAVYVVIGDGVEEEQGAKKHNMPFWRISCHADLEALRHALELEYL
# Target sequence (Q15475 whole entry, looked up): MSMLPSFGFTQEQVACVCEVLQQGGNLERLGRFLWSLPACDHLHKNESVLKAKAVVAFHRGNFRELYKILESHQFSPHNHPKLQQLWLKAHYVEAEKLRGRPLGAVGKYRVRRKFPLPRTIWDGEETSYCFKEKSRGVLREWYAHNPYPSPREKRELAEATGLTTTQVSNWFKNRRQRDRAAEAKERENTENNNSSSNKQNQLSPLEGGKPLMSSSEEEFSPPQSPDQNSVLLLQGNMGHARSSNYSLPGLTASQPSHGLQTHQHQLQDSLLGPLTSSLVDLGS
#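 AlphaScreen luminescence read after one hour at 37 °C in darkness. Pin-transferred compounds met GST-Six1 and His-Eya2 protein (5X stock 250 nM/500 nM) plus glutathione donor and Ni-chelate acceptor beads (5X, 50 ug/mL).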
# TRPML1 inh = qHTS for Inhibitors of the Human Mucolipin Transient Receptor Potential 1 (TRPML1); Mucolipin-1 (Homo sapiens), Q9GZU1; TRPML1-inducible cells, Ca2+ dye fluorescence, FDSS; active compounds read low; inhibition of EC80 agonist-evoked calcium signal; activity change, negative = inhibition, % (test concentration not listed); 0.02% of 390,000 active; in the data active means activity change below about -50%; inconclusive means about -30% to -50%; inactive means above about -30%;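 also: stimulus is agonist 54-4 at its EC80 concentration; % is scaled to controls: 0 for no effect and ±100 for the full control effect; compound concentration not given in the record; the text of the record puts the active cut at -80%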
#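 TRPML1-DL cells, Tet-induced overnight (~16 h, 37 °C) at 1,500 cells/well, were loaded with Ca8 no-wash dye plus quencher for 45-90 min at room temperature. Compounds were pinned during FDSS kinetic reading; agonist 54-4 at EC80 (4 uM final) then added.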
# * = called active by the depositor; ? = inconclusive; · = no result given; & = joins results of further samples; [ ] = remark or other dose.
SMILES,D2 ag,TRPML1 ag,PINK1 modulator,D2 PAM,Six1-Eya2 inh,TRPML1 inh
CCN(CC)S(=O)(=O)c1ccc(N2CC(C(=O)NCCc3ccc(Cl)cc3)CC2=O)cc1 (stereo unspecified),-0.4,-0.6,4.9%,-3,-1,24
O=c1cc(CN2CCN(S(=O)(=O)c3ccccc3)CC2)nc2ccc(Cl)cn12,5.4,2.2,0.6%,1,-7,-1
Cc1ccc(NC(=O)CCCn2c3ccccc3c(=O)c3cc(C)ccc32)c(Br)c1,·,2.3,7.0%,·,·,-6
COc1ccc(N2CC(C)Cn3c2nc2c3c(=O)n(Cc3ccccc3F)c(=O)n2C)c(OC)c1 (stereo unspecified),-3.9,0.8,8.1%,-12,-21,0
C=CCn1c(SCC(=O)OCc2ccccc2)nc2c1c(=O)n(C)c(=O)n2C,-1.0,0.8,1.5%[38.3 µM],-3,0,-2
CSCc1cccc(C(=O)OC(C)C(=O)Nc2c(C)n(C)n(-c3ccccc3)c2=O)c1 (stereo unspecified),2.7,0.4,0.3%,-4,-4,15
O=C(COC(=O)CNC(=O)c1ccc(Cl)c([N+](=O)[O-])c1)NNC(=O)c1ccccc1F,-3.1,-0.6,-0.2%,-4,-4,1
CCCN(C(=O)COC(=O)CC1CCCCC1)c1c(N)n(Cc2ccccc2)c(=O)[nH]c1=O,1.3,0.1,2.1%,-4,1,-4
COc1ccc(NC(=O)[C@H]2O[C@@H]3OC(C)(C)O[C@@H]3[C@H]3OC(C)(C)O[C@H]32)c(OC)c1,·,-0.2,-1.1%,·,·,3
CNC(=O)c1ccc(Nc2nnc(-c3ccc(C)c(S(=O)(=O)NC(C)(C)C)c3)c3ccccc23)cc1,·,-0.8,3.0%,·,·,-9
CC1=CC(C)=Nc2ccccc2N1,-4.0,0.7,·,-22,6,-6
C=CCN=C(C)C1=C(O)C(C)OC1=O (stereo unspecified),-0.4,0.0,2.2%,0,-6,22
CCOC(=O)c1ccc(S(=O)(=O)N2CCN(C(C)=O)CC2)cc1,-6.2,-0.8,-0.6%,-16,2,-15
COC(=O)C1=C(NC(=O)c2ccc(C)c(C)c2)CCS1,-1.0,3.9,2.7%[38.3 µM],-4,8,24
COc1ccccc1NC(=O)C1=C(C)Nc2nc(-c3ccco3)nn2C1c1cccc(C)c1 (stereo unspecified),·,1.1,3.0%,·,·,-4
CC1CN(CCOc2cccc(Oc3ccccc3)c2)CC(C)O1 (stereo unspecified),-1.7,1.7,5.0%,-3,-7,14
COc1ccccc1C(=O)NCC(=O)OCC(=O)c1ccc2c(c1)-c1ccccc1C2,1.4,0.9,0.5%,-3,2,-6
Clc1cccc(Nc2nc(-c3cccnc3)cs2)c1,-3.1,1.5,0.7%,-6,3,14
CCOC(=O)c1ccccc1NC(=O)COC(=O)CCC1CCCC1,2.6,2.5,0.4%,-19,49,7
COc1cc(/C=C(/NC(=O)c2ccccc2Cl)C(=O)O)cc(OC)c1OC,-1.7,-0.8,0.7%,-6,3,0
O=C(NNC(=O)c1ccccc1[N+](=O)[O-])c1ccco1,-0.1,-0.1,0.7%,-3,1,2
Cc1cc(=O)oc2c(CN3CCC(C)CC3)c(O)c(Cl)cc12,1.8,0.5,-0.2%,-8,-7,10
CN(CC(=O)N1CCN(Cc2ccccc2)CC1)S(=O)(=O)c1cccc2nsnc12,-0.5,0.6,-1.7%,-7,4,0
CCCCN1/C(=C/c2ccc3ccccc3[n+]2CC)Sc2ccccc21,1.6,?,11µM*,-5,-7,-20
O=[N+]([O-])c1cccc(-c2cn(-c3ccccc3)c(=S)[nH]2)c1,9.7,0.4,8.9%,-10,-9,-7
NS(=O)(=O)c1ccc(CCNC(=O)COC(=O)CC(c2ccccc2)c2ccccc2)cc1,5.4,-0.4,0.8%,0,-1,0
COc1cccc(C(=O)CSc2nc3ccccc3n2CC(=O)N2CCOCC2)c1,-3.7,-0.5,2.3%[38.3 µM],-13,0,2
CCC(=O)N(CCC(c1ccccc1)c1ccco1)Cc1cccs1 (stereo unspecified),-3.4,0.0,-0.2%,-18,-4,0
O=C(COC(=O)c1cccc(O)c1)Nc1nnc(-c2ccccc2)o1,-3.3,0.2,0.2%,9,?,1
O=C(NCc1ccccc1)c1nnc(Cc2cccc(F)c2)o1,·,-0.2,0.9%,·,·,38
CCOC(=O)c1c(CN(C)C)n(C)c2c(O)c(N=NC(N)=O)c3ccc(Br)cc3c12,2.7,-0.6,3.8%,4,3,5
COc1ccc(-n2c(=O)cc(N3CCc4ccccc43)[nH]c2=O)cc1,-3.2,-0.3,-0.3%,-7,7,-6
Cc1nc2c(C(=O)NCc3ccc4c(c3)OCO4)cnn2c(C)c1Cc1ccc(F)cc1Cl,-1.0,4.2,10%[38.3 µM],-3,-1,13
O=C(COC(=O)COc1cccc(C(F)(F)F)c1)NC1CCS(=O)(=O)C1 (stereo unspecified),-3.7,1.3,2.9%,10,-2,-4
CCOC(=O)C1CSC(CC(=O)Nc2ccc(OC(F)(F)F)cc2)C(=O)N1 (stereo unspecified),-2.9,-0.5,5.7%,-7,23,-8
C/C(=N\N1C(=O)CSC1=S)c1ccc(Br)cc1,10,-0.6,1.4%,25,-11,2
O=C(CSc1nnnn1C1CC2CCC1C2)Nc1ccnc2ccccc12 (stereo unspecified),2.9,1.3,0.9%,-11,-12,42
CCCC(C(=O)c1ccccc1)n1cncn1 (stereo unspecified),-5.2,2.0,-1.2%,-17,-1,-13
O=C(c1ccc(-c2nnc(-c3ccccc3)o2)cc1)N1CCCCCC1,-0.1,0.2,-0.1%,17,4,8
CN(c1ccccc1)S(=O)(=O)c1ccccc1Br,-2.8,-1.1&-1.0,8.0%,-6,6,-6
O=C(NCCC(=O)N1CCN(Cc2c(F)cccc2Cl)CC1)c1ccc(Cl)cc1,-1.6,0.3,-1.6%,-3,0,-16
CCCc1cc(NC(=O)CCl)n(-c2ccccc2)n1,1.9,-0.6,3.4%,-3,-9,2
CC(C)(C)C(=O)NC(=S)NNC(=O)c1ccc(Cl)cc1Cl,-5.1,66*,1.0%,-9,1,19
O=C(O)/C(CC(=O)c1ccc(Cl)cc1)=N/Nc1ccc([N+](=O)[O-])cc1[N+](=O)[O-],4.0,·,-0.7%,-15,?,·
CCOC(=O)N1CCN(S(=O)(=O)c2cc([N+](=O)[O-])c(C)cc2C)CC1,4.7,1.9,6.3%,-1,-4,-8
O=c1c2ccccc2nnn1CSc1ncnc2ccccc12,-2.3,0.7,-1.2%,10,2,-8
CCc1ccc2nc(N(CCCN(C)C)C(=O)c3ccc(S(=O)(=O)N4CCCc5ccccc54)cc3)sc2c1,-7.1,1.3,-1.9%,-11,-29,3
COCCNC(=O)C(c1cccs1)N(Cc1ccccc1)C(=O)Cn1nnc2ccccc21 (stereo unspecified),-3.9,2.5,0.7%,-15,0,-14
CC1(C(=O)Nc2ccc3c(c2)OCO3)CCN1C(=O)C1CCCCC1 (stereo unspecified),6.1,-1.2,0.8%,-3,4,·
Cc1cc(NC(=O)c2ccc3c(c2)C(=O)N(C)C3=O)no1,-5.4,-0.3,-1.6%,-4,-2,-11
COc1ccccc1-n1ccnc(SCC(=O)NCCc2ccccc2)c1=O,-5.2,1.6,-0.6%,-24,0,-7
C#CCOCCOCCOCCNc1nc(N2CCN(C(=O)Cn3cc(CCO)nn3)CC2)nc(N2CCN(C(=O)[C@H]([C@@H](C)CC)n3cc(CCCCN)nn3)CC2)n1,-0.7,2.7,-1.0%,-3,-2,-3
O=C1c2ccccc2C(=O)N1CCc1c(-c2ccccc2)[nH]c2ccccc12,-1.0,0.8,-0.3%,·,-27,4
Cn1c(=O)cc(OCC(=O)NCc2ccccn2)c2ccccc21,-3.7,-0.5,·,-6,-2,-26
CC1CCC(C(C)C)C(OC(=O)Cn2c(-c3ccc(F)cc3)[n+](C)c3ccccc32)C1 (stereo unspecified),-2.2,0.0,?,-35,-2,35
CC(=O)c1ccc(Oc2nc3c(c(=O)n(C)c(=O)n3C)n2C)cc1,?,0.0,0.7%,-10,6,-5
CCOc1ccc(S(=O)(=O)NCCC(=O)OCC(=O)c2ccc[nH]2)cc1,-2.5,-0.4,0.9%,-18,0,8
CN(C)S(=O)(=O)c1ccc(N2CCCC2)c(C(=O)NC2CCC(O)CC2)c1 (stereo unspecified),-4.7,-0.3,-0.3%,-4,4,-4
Cc1ccc(NC(=O)NNS(=O)(=O)c2ccc(Br)cc2)cc1,-0.4,-0.1,-1.5%,-15,2,-16
Brc1ccccc1OCCOc1cccc2cccnc12,0.6,2.2,5.2%,-6,2,41

# 5 consecutive entries already listed:
SMILES,D2 ag,TRPML1 ag,PINK1 modulator,D2 PAM,Six1-Eya2 inh,TRPML1 inh
O=c1c2ccccc2nnn1CSc1ncnc2ccccc12,-2.3,0.7,-1.2%,10,2,-8
CCc1ccc2nc(N(CCCN(C)C)C(=O)c3ccc(S(=O)(=O)N4CCCc5ccccc54)cc3)sc2c1,-7.1,1.3,-1.9%,-11,-29,3
COCCNC(=O)C(c1cccs1)N(Cc1ccccc1)C(=O)Cn1nnc2ccccc21 (stereo unspecified),-3.9,2.5,0.7%,-15,0,-14
CC1(C(=O)Nc2ccc3c(c2)OCO3)CCN1C(=O)C1CCCCC1 (stereo unspecified),6.1,-1.2,0.8%,-3,4,·
Cc1cc(NC(=O)c2ccc3c(c2)C(=O)N(C)C3=O)no1,-5.4,-0.3,-1.6%,-4,-2,-11

# (list continues)
SMILES,D2 ag,TRPML1 ag,PINK1 modulator,D2 PAM,Six1-Eya2 inh,TRPML1 inh
CCN(CC(=O)Nc1cccc(S(=O)(=O)N2CCCC2)c1)CC(=O)Nc1ccccc1OC,0.6,2.6,4.6%,-1,1,-14
Cc1csc(=O)n1CC(=O)OCc1nnc(-c2ccccc2)o1,-0.5,0.0,2.0%,-7,2,5
O=C(COC(=O)c1ccccc1C(F)(F)F)NC(=O)NCc1ccco1,3.7,2.7,2.8%,5,-5,-2
CCOc1cc(Br)ccc1S(=O)(=O)N1CC(C)OC(C)C1 (stereo unspecified),-1.5,-0.8,5.3%[38.3 µM],-13,-12,25
CCS(=O)(=O)CCSc1nc(C)cc(C)n1,0.6,0.3,2.1%,-4,7,-2
COCCN(Cc1cc2cc3c(cc2nc1Cl)OCO3)C(=O)c1ccc(C)cc1,-3.0,-1.2,1.4%,-3,-4,5

# Screening data (PubChem)
